Screening results from PubChem BioAssay.
Rce1 inh = blocks yeast Ras-converting enzyme; Q03530; actives 0.27% (n = 290,000); yeast membranes, quenched prenylated peptide cleavage fluorescence; calls only;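 active means fall in fluorescence gain of 50% or more versus controls, with final raw signal at or below 3038400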;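 further: plate controls were neutral control wells for no effect and wells lacking membranes for full effect; tested at 10 µM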
Target sequence (Q03530 whole entry, looked up): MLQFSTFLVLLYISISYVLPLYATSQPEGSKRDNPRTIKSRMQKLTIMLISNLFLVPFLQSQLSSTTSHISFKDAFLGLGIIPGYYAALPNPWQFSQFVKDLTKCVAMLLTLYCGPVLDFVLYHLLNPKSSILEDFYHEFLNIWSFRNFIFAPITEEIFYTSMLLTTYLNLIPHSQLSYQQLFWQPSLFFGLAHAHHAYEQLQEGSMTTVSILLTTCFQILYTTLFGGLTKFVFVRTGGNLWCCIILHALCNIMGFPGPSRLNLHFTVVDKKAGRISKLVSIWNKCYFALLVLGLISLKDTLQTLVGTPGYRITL
CSC inhib = blocks cancer stem cells | actives 1.1% (n = 300,000) | inhibition, % at 7.5 µM | cancer stem cell-like cells viability, luminescence;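 active means mean at 75% or more and at least half the replicates too; tested in HMLE shEcad cells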;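 further: 0% = median of negative and 100% = median of positive control wells; the first replicate is given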
PABP FP inh = PABP-poly(A) binding inhibition; inhibition, % at 35 µM; PABP-poly(A) RNA binding, fluorescence polarization; actives 1% (n = 290,000); P11940;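 active means 50% or more with normal probe brightness, or confirmed in later tests; about a fifth of its hits are not listed in these tables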;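 further: calls also rest on retests at 20 µM and on dose response follow-up; controls were probe without protein and protein plus probe with vehicle; some compounds called inactive have numbers as strong as hits; many hits fall short of the cut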
Target sequence (P11940 whole entry, looked up): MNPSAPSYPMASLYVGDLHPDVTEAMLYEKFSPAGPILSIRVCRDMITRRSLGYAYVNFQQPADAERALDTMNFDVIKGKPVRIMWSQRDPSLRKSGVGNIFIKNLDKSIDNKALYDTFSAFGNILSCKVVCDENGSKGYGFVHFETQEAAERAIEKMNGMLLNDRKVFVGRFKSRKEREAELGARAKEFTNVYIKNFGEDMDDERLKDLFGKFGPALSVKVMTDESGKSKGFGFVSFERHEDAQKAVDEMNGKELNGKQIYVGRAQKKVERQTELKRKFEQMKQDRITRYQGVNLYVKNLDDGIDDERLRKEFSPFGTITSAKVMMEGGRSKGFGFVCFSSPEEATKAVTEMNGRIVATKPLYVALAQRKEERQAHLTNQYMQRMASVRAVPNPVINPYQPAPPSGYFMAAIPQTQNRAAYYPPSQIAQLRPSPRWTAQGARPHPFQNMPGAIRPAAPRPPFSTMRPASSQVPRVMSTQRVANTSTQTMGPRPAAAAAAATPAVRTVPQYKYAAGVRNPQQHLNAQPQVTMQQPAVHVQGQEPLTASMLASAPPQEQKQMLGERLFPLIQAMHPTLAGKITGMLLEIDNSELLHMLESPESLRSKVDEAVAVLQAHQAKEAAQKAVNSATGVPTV
MT1-MMP act inh = inhibitors of human MT1-MMP activation; HT1080 RFP-PRO-GFP cells, GFP/RFP ratio fluorescence, overnight; percent of plate control window, DMSO zero; GFP/RFP ratio change, % at 20 µM; actives 0.061% (n = 360,000); AID 651647;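 active means GFP/RFP ratio change of at least 30% with cell ATP level not reduced by more than half and red fluorescence within 50% of control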; further: strong numbers were not always called active
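Read-out: GFP/RFP fluorescence ratio; Test system: RFP-PRO-GFP reporter HT1080 cells; Compound dosing: single-point 20 µM compound, 1% DMSO; Times: overnight compound exposure at 37 °C.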
Yeast UUG start = yeast start codon fidelity modulation | S. cerevisiae UUG-firefly luciferase reporter, luminescence/redox ratio | activity score, % at 18.7 µM | actives 0.13% (n = 350,000);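 active means replicate mean at a twofold rise or more, about +100% in these data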;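 further: firefly luciferase made from a UUG start codon reports start codon fidelity; reporter light over untreated wells divided by growth signal over untreated wells; some hits fall short of that in this replicate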
eIF4H FP inh = inhibitors of RNA binding by human eIF4H. eIF4H fluorescence polarization binding assay. inhibition, % at 35 µM. actives 0.94% (n = 290,000);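 active means 50% or more with normal probe brightness, or confirmed in later tests; about a fifth of its hits are not listed in these tables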;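 further: calls also rest on retests at 20 µM and on dose response follow-up; 0% = protein and probe with vehicle and 100% = probe without protein; strong numbers were not always called active; many hits fall short of the cut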
HIV Env fusion = blocks HIV Env-driven cell-cell fusion | HeLa-JRFL Env/CEM21 cell fusion, luciferase | inhibition, % at 12.3 µM | actives 1.1% (n = 360,000) | AID 651610;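 active means mean replicate inhibition score of at least 50 and every replicate individually at or above 50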;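 further: 0% = plate neutral controls and 100% = maraviroc near 300 nM; one replicate is shown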
eIF4H FP inh retest = recorded beside eIF4H FP inh, whose call it bears; inhibition, %; compound at 20 µM; confirmation average;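 mean of two retest wells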
PABP FP inh retest = further read-out of PABP FP inh, marked with its call; inhibition, %; compound at 20 µM; confirmation repeats;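 mean of two retest wells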
MT1-MMP act inh RFP = second read-out of MT1-MMP act inh, no call of its own (marks repeat the call); RFP signal change, %; measured here: RFP expression control read;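 0 = vehicle wells; hits needed this value within 50% of zero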
The depositor's hits bear a star; i = inactive; . = not tested or not shown; [ ] = remark or other dose.

SMILES	Rce1 inh	CSC inhib	PABP FP inh	MT1-MMP act inh	MT1-MMP act inh RFP	Yeast UUG start	eIF4H FP inh	HIV Env fusion	others
CCOC(=O)c1sc(N)nc1-c1ccccc1	i	-9	-8	-1	5	-17	1	-51
CCCN1CCC(=O)N(CCO)CC1	i	-25	-3	-2	-1	-14	-1	-12
COc1ccc(OC)c(CNS(=O)(=O)c2cc(CN3C(=O)c4cccnc4C3=O)ccc2OC)c1	i	-5	-2	-1	4	3	-19	6
CCN(CCc1ccccc1)c1ccc2c(c1)C1CC2CCN1Cc1ccccc1 (stereo not given)	.	.	.	-3	-18	-5	.	5
COc1ccc(-n2c(C)n[nH]c2=O)cc1OC	i	-8	0	5	1	-7	-5	-12
CC(NC(=O)c1cccs1)c1n[nH]c(=S)n1C (stereo not given)	i	-10	0	-4	2	-8	3	.
CNC[C@H]1Oc2c(NS(=O)(=O)c3ccc(F)cc3)cccc2C(=O)N([C@H](C)CO)C[C@@H]1C	.	.	.	-3	3	-8	.	13[16.7 µM]
COc1ccc(C2=NS(=O)(=O)N(C)C(C(=O)NC3CCCC3)=C2)cc1OC	i	0	-8	-1	-4	6	-6	2
CC(NS(=O)(=O)c1cccc(S(=O)(=O)c2ccccc2)c1)C(=O)O (stereo not given)	i	-16	3	7	6	.	2	-20
Cn1c(=O)c2c(n(C)c1=O)=NC1(CCCCC1)N=2	i	5	7	6	7	-34	8	-72
CC1(C)C=C2[C@H]3CC[C@@H]4[C@@]5(C)CCC(=O)C(C)(C)[C@@H]5CC[C@@]4(C)[C@]3(C)CC[C@@]2(C(=O)O)CC1	i	107*	11	7	-18	-29	2	.
Cc1ccc(N(CC(=O)NCc2ccco2)C(=O)CCC(=O)Nc2nccs2)cc1C	i	.	1	1	-2	-25	-6	-9
O=C(COc1ccc([N+](=O)[O-])cc1)N1CCc2ccccc2C1	i	-31	0	-1	-4	-1	-17	-15
C=CCCCCCCCCC(=O)NN	i	20	9	-4	-4	-24	-9	.
CCc1nc(C#N)c(N2CCCCC2)o1	i	-9	4	1	5	.	-5	-5
Cc1cc(C)n2nc(C)c(Br)c2n1	i	6	13	0	6	5	9	-4
O=C(C(=O)c1cccnc1)c1cccnc1	i	-12	-1	0	7	.	3	9
O=C(CSc1cn[nH]n1)Nc1ccc(O)c(C(=O)O)c1	i	.	9	0	-1	-8	8	-17
CCSc1nnc2n1C(C)(C)Cc1ccccc1-2	i	12	-5	-7	-1	-12	5	-1
COC(C(=O)Nc1ccnn1C1CCN(Cc2ccc(C)o2)CC1)c1ccccc1 (stereo not given)	i	-9	5	0	0	-16	5	-8
Cc1nc(SCC(=O)NC(=O)NC(C)(C)C)nc(C)c1C	i	-9	14	-1	-2	.	-3	15
COc1ccc(CNC(=O)C/C(C)=N/NC(=O)COc2ccccc2)cc1	i	-12	3	4	8	.	3	-5
CC(C)CNS(=O)(=O)c1ccc(CCC(=O)Nc2ccc3c(c2)OCCO3)cc1	i	-22	-3	-5	-2	-6	-10	.
Cc1ccnc(N(C(=O)Nc2ccccc2)C2=NCC(C)(C)S2)c1	i	7	0	4	3	-9	-5	-11
CCCn1c(SCC(=O)N2c3ccccc3CC2C)nnc1-c1ccco1 (stereo not given)	i	-14	-3	-6	-1	-17	3	-44
COc1ccc(-c2nnc(NC(=O)c3ccccc3[N+](=O)[O-])s2)c(OC)c1	i	-5	-6	4	7	-8	5	-18
O=C(CCN1CCN(c2ccccc2)CC1)NNC(=O)c1cccc2ccccc12	i	16	-12	3	5	12	-1	-5
O=C(NCc1csc2ccc(Cl)cc12)Nc1ccccc1	i	26	2	4	-5	.	-8	34
CC(=O)c1cccc(NC(=O)CNC(=O)c2sc3ccccc3c2Cl)c1	i	-3	.	-2	1	-21	.	-38
O=C(CCNC(=O)c1ccc([N+](=O)[O-])cc1)Nc1ccc(F)cc1F	i	0	3	3	4	0	-9	-4
CCN(CC(=O)NCc1ccc(F)cc1)C(=O)C(C)Oc1cccc(Cl)c1 (stereo not given)	.	-7	.	-5	-1	-9	.	.
Cc1ccsc1/C=C1\SC(=S)N(CC2CCCO2)C1=O (stereo not given)	i	-1	-2	5	3	.	-1	-26
Fc1cccc(Cc2c(-c3ccc(Cl)cc3)nc3ccc(Br)cn23)c1	.	.	.	-14	-17	-9	.	-274
CC(C(=O)NN)c1ccc([N+](=O)[O-])cc1 (stereo not given)	.	0	-5	-4	0	-12	-7	-3
S=c1[nH]nc(COc2ccccc2)n1/N=C/c1ccc(Cl)c(Cl)c1	i	.	-2	-1	1	-11	19	1
COc1ccc(S(=O)(=O)NCC(=O)N(CC(=O)NC(C)(C)C)Cc2cccs2)cc1	i	-8	14	0	4	.	8	7
C[C@H]1CN([C@@H](C)CO)S(=O)(=O)c2ccc(-c3ccccc3)cc2O[C@H]1CN(C)C(=O)C1CCC1	.	.	.	-2	-7	8	.	10
COc1ccc(S(=O)(=O)N(C)CC(=O)Nc2cccc(C(C)=O)c2)cc1C	i	-20	29	6	3	-6	3	-96
O=S(=O)(NC1=NCCC1)c1ccc(F)cc1	i	-6	-6	-1	4	-14	-10	27
NS(=O)(=O)c1ccc(N/N=C/c2ccc(O)c(O)c2O)c([N+](=O)[O-])c1	.	.	49	6	-2	-17	96*	-1	eIF4H FP inh retest=87*;PABP FP inh retest=42
NNC(=O)CSc1c(-c2ccccc2)c2cc(Cl)ccc2[nH]c1=O	i	-5	2	6	5	-5	-13	18
COc1ccc(C)cc1NC(=O)CCNC(=O)Cn1ccc2ccccc2c1=O	.	-3	-5	-3	-3	-3	-13	-4
Oc1ccc(Cl)cc1/C=C/c1ccc2cccc(O)c2n1	i	.	0	-1	0	.	19	-20
O=C(CCc1ccccc1)Nc1ccc(NC(=O)C2CC2)nc1	i	15	-3	0	7	-24	-8	-15
COc1cc(/C=C2\SC(c3ccccc3)=NC2=O)cc(Cl)c1O	i	.	6	-7	3	.	-4	12
Cc1cc(NC(=O)COC(=O)CCS(=O)(=O)c2cc(Cl)ccc2Cl)no1	i	.	-3	3	5	-21	-13	-2
COc1ccc2nc(NC(=O)C3CCCN(S(=O)(=O)c4cccs4)C3)sc2c1 (stereo not given)	i	.	-6	-11	-10	-3	-9	.
O=C(Nc1nnc(-c2ccco2)o1)c1ccc(S(=O)(=O)N2CCOCC2)cc1	i	8	-1	0	7	-12	4	0
O=C(Cc1c(F)cccc1Cl)Nc1ccc(S(=O)(=O)Nc2nccs2)cc1	i	.	4	-1	2	-22	-2	-4
O=C(c1cnc2sccn2c1=O)N1CCCc2ccccc21	i	3	4	-4	3	-23	2	10

Grouped by structure, those above with a tert-butyl group.
SMILES	Rce1 inh	CSC inhib	PABP FP inh	MT1-MMP act inh	MT1-MMP act inh RFP	Yeast UUG start	eIF4H FP inh	HIV Env fusion	others
Cc1nc(SCC(=O)NC(=O)NC(C)(C)C)nc(C)c1C	i	-9	14	-1	-2	.	-3	15
COc1ccc(S(=O)(=O)NCC(=O)N(CC(=O)NC(C)(C)C)Cc2cccs2)cc1	i	-8	14	0	4	.	8	7

Next part
SMILES	Rce1 inh	CSC inhib	PABP FP inh	MT1-MMP act inh	MT1-MMP act inh RFP	Yeast UUG start	eIF4H FP inh	HIV Env fusion	others
Cc1cccc(N/C(N)=N/c2nc(CSc3ccc(Cl)cc3)cc(=O)[nH]2)c1	i	7	12	.	.	.	-6	13
COc1ccccc1N1CCN(c2ccc3c(c2)S(=O)(=O)c2cccc(C(=O)NCc4cccc(F)c4)c2C3=O)CC1	.	.	.	3	1	-10	.	-58
CC[C@H]1OC(=O)C[C@@H](O)[C@H](C)[C@@H](O[C@@H]2O[C@H](C)C[C@H](N(C)C)[C@H]2O)[C@@H](CC=O)C[C@@H](C)C(=O)C=C[C@]2(C)O[C@H]2[C@@H]1C	i	29	1	.	.	.	-5	.
O=C1N=c2ccccc2=C1c1sc(=S)n(NC(=O)c2ccccc2)c1O	i	-1	1	-1	2	-15	5	0
COC(=O)c1cnc2ccccc2n1	i	-2	-1	1	0	-16	8	-74
COCCNC(=O)Cn1nc(Cc2ccncc2)c2ccccc2c1=O	i	-24	-6	-1	-2	-8	2	0
Nc1cc(N)nc(SCC(=O)NC(=O)NC2CCCC2)n1	.	.	.	12	-4	-21	.	-2
O=C(CCC(=O)N1CCOc2ccc(Cl)cc21)N1CCN(c2ccccn2)CC1	i	-6	-8	-1	-4	10	-7	18
CN(C)S(=O)(=O)c1ccc(Cl)c(NC(=O)COC(=O)c2cc(-c3ccccc3)nc3ccccc23)c1	i	-12	-10	-2	-2	-10	-14	-7
COc1cc(C)ccc1OCc1cc(C(=O)N2CCC(c3ccc(F)cc3)C2)no1 (stereo not given)	i	20	10	0	-5	4	-12	-34

Next section; it opens with the 2 that closed the last part.
SMILES	Rce1 inh	CSC inhib	PABP FP inh	MT1-MMP act inh	MT1-MMP act inh RFP	Yeast UUG start	eIF4H FP inh	HIV Env fusion	others
CN(C)S(=O)(=O)c1ccc(Cl)c(NC(=O)COC(=O)c2cc(-c3ccccc3)nc3ccccc23)c1	i	-12	-10	-2	-2	-10	-14	-7
COc1cc(C)ccc1OCc1cc(C(=O)N2CCC(c3ccc(F)cc3)C2)no1 (stereo not given)	i	20	10	0	-5	4	-12	-34
Cc1ccc(NC(=O)c2csc3c2CCCC3)cc1	i	1	13	-1	1	.	0	-72
O=C(CSC1=NS(=O)(=O)c2ccccc2N1)Nc1nccs1	i	-9	.	-2	1	-5	.	-6
CNC(=O)CSc1nc(N)c2c3c(sc2n1)CCC3	i	.	-5	5	2	-14	5	-30
CCOc1ccccc1Oc1coc2cc(O)ccc2c1=O	i	-3	-2	-2	1	-22	-9	.
Cc1ccc(S(=O)(=O)c2nc(-c3ccco3)oc2N2CCC(C)CC2)cc1	.	-9	-6	-7	-3	-19	7	26
Cc1ccc2nc(-c3ccccc3)c(NC(=O)c3ccco3)n2c1	i	-7	8	8	3	-5	-10	.
CC(C)(C)NC(=O)C(Cc1ccccc1)N1C(=O)c2ccccc2C1=O (stereo not given)	i	-4	6	-2	0	-4	-3	-5
Nc1ccccc1-c1ccccc1N	i	1	-4	1	1	.	-5	0
Cc1ccc(NC(=O)CCSc2nnc(Cc3ccccc3)o2)cc1	i	-9	11	2	-6	-3	7	7
Cc1ccc(S(=O)(=O)NCc2ccncc2)cc1C	i	-11	8	-5	-26	.	-7	-1
CCOC(=O)c1ccccc1NC(=O)COC(=O)CCC(=O)c1ccc(C)cc1	i	1	.	3	4	-9	.	5
CC1Cc2ccccc2N1C(=O)Cn1nnc(-c2ccccc2NC(=O)C2CCC2)n1 (stereo not given)	i	17	8	2	-3	-10	-6	.
O=C(NC1CCS(=O)(=O)C1)C1CCCC1 (stereo not given)	i	-3	.	0	0	-24	.	6
COc1ccccc1Cn1c(=S)[nH]c2cc(C(=O)NCCCN3CCOCC3)ccc2c1=O	i	7	0	7	-1	-25	-15	9
CCN(C(=O)/C=C/c1ccc(OC)cc1)C1CCS(=O)(=O)C1 (stereo not given)	i	-15	.	8	6	.	.	-1
CCCCN(C(=O)CSc1nnc(-c2ccccc2)o1)c1c(N)n(CCC)c(=O)[nH]c1=O	.	.	.	-4	-1	-10	.	6
O=C(O)c1ccc(CSc2nc3ccccc3c(=O)n2-c2ccccc2)cc1	i	3	-3	-2	-1	-4	5	6
COc1ccc(Cc2nnc(SC)[nH]c2=O)cc1OC	i	-1	16	6	5	-14	6	5
CC(NC(=O)c1ccccc1SCC(=O)N1CCCC1)c1ccccc1 (stereo not given)	i	2	.	3	6	-19	.	15
COc1ccc(NC(=O)CSc2nccn2Cc2ccc(F)cc2)c(OC)c1	i	-16	14	4	1	-15	-8	.
CCOc1ccc(/C=N/Nc2cc(=O)n(C)c(=O)n2C)cc1	i	7	-4	2	-1	-13	-15	.
